StopGo FLuc: lowers the firefly signal of an FMDV 2A StopGo reporter; HEK cells with a luciferase reporter of 2A StopGo recoding; Potency, µM (series often up to 57.5 µM), without a hit: top-dose signal change, negative = less light; 120,000 compounds, 0.23% hits; active = well fitted falling curve with a large enough effect; inconclusive = small, poorly fitted or top-dose-only effect; inactive = no such curve, though single readings can be large or run the other way; further: nearly all actives have a fitted effect of over 60% in size; overnight with compound
2A Renilla: lowers the Renilla signal of an FMDV 2A StopGo reporter; HEK cells with a luciferase reporter of 2A StopGo recoding; Potency, µM (top dose mostly 57.5 µM), without a hit: at the highest dose signal change, negative = less light; 120,000 compounds, 0.32% hits; active means well fitted falling curve with a large enough effect; inconclusive means small, poorly fitted or top-dose-only effect; inactive means no such curve, though single readings can be large or run the other way; further: nearly all actives have a fitted effect of over 55% in size; overnight with compound
Active calls of the source: *; u = inconclusive; & = joins results of further samples; [ ] = remark or other dose. On the % scale 0 is the no-effect control and ±100 the full control effect; potency means the concentration at half of the fitted maximal effect. Random draw from the library, and some 0.53% of all compounds hit somewhere here.

1	CC1CCCCN1C(=O)CCS(=O)(=O)c1cc2c(cc1Cl)NC(=O)CO2 (stereo not given)
2	COc1ccc(CCNC(=O)Cc2c(C)c3cc4c(C)coc4cc3oc2=O)cc1OC
3	CCOc1ccc(N(C(C)C(=O)N(C)Cc2ccccc2)S(C)(=O)=O)cc1 (stereo not given)
4	CCOC(=O)c1c(S(=O)(=O)N2CCC(C(=O)Nc3ccc(C)c(Cl)c3)CC2)c(C)n(C)c1C
5	CCOC(=O)c1c(C)n(-c2ccccc2)c2ccc(OC(=O)c3ccccc3NC(=O)C(C)C)cc12
6	COc1ccc(-c2cc3ccc(OC(=O)C(C)(C)C)cc3oc2=O)cc1OC
compound no.	1	2	3	4	5	6
StopGo FLuc	2%	-13%	8%	-10%	u	144%[activator]
2A Renilla	7%	-10%	10%	1%	u	68%[activator]

Sorted by molar mass (falling): part of the list above.
4	CCOC(=O)c1c(S(=O)(=O)N2CCC(C(=O)Nc3ccc(C)c(Cl)c3)CC2)c(C)n(C)c1C
2	COc1ccc(CCNC(=O)Cc2c(C)c3cc4c(C)coc4cc3oc2=O)cc1OC
1	CC1CCCCN1C(=O)CCS(=O)(=O)c1cc2c(cc1Cl)NC(=O)CO2 (stereo not given)
3	CCOc1ccc(N(C(C)C(=O)N(C)Cc2ccccc2)S(C)(=O)=O)cc1 (stereo not given)
6	COc1ccc(-c2cc3ccc(OC(=O)C(C)(C)C)cc3oc2=O)cc1OC
compound no.	4	2	1	3	6
StopGo FLuc	-10%	-13%	2%	8%	144%[activator]
2A Renilla	1%	-10%	7%	10%	68%[activator]

(next part)
7	COc1ccc(CN(C(=O)c2cc(=O)c3cc(Cl)ccc3o2)C2CCS(=O)(=O)C2)cc1OC (stereo not given)
8	CCOc1ccc(NC(=O)CCn2cnc3onc(-c4ccc(F)cc4)c3c2=O)cc1
9	COc1cccc(C(=O)Nc2nc3ccc(S(=O)(=O)N4CCCC4)cc3s2)c1
10	CCc1ccc(CN(C)C(=O)Cn2cnc3c2c(=O)n(C)c(=O)n3C)cc1
11	Cc1ccc(NC(=S)NCc2ccccc2)c(Br)c1
12	CCOc1ccc(C(=O)c2cn(Cc3ccccc3)c3c(F)cc(F)cc3c2=O)cc1
13	Cn1nc(C(=O)N2CCOCC2)cc1C(=O)Nc1ccc(Cl)cc1Cl
compound no.	7	8	9	10	11	12	13
StopGo FLuc	1%	11%&-14%	-18%	42%[activator]	198%[activator]	0%	35%[activator]
2A Renilla	-3%	3%&-3%	68%[activator]	22%	1%[1.06 µM]	468%[activator]	-4%

From PubChem BioAssay
